HSV augment = HSV replication enhancement. AID 1956. HSV replication augmentation in cells, fold increase. hit rate 0.005% among 220,000. maximum fold increase;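 active = peak rise of 1.5-fold or more in the series; tested in PC3 cells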;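 note: first round at 10 µM; read as green reporter fluorescence; hits show the peak of a series up to 25 µM; 1 = signal of infected wells without compound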
Insulin prom inh = TRM-6 insulin promoter activity inhibition | TRM-6 cells (human fetal islet line), insulin promoter-eGFP reporter, imaging; reporter expression induced with tamoxifen | inhibition, % at 2 µM | hit rate 0.9% among 130,000 | AID 1273;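 active = inhibition above the mean plus 3 SD, with well images judged a real hit on visual review, cut at about 60% in these data, passing the limit was not always enough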
PKD1 inh = blocks activity of human protein kinase D1. Q15139. PKD1 kinase fluorescence polarization assay. inhibition, %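 (about 10 µM by stock and volumes)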. hit rate 0.056% among 200,000. AID 797;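 active = inhibition of 50% or more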;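 note: controls were vehicle for no effect and a reference inhibitor for full effect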
GALR2 ag = agonists of human galanin receptor 2 (GALR2). hit rate 0.48% among 140,000. O43603. GALR2-expressing cells, agonist activation read-out. activation, %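 (tested at 5 µM)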;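 active = above mean plus 3 SD of all compounds, about 5% in these data, not always enough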;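 note: 0% = vehicle buffer wells and 100% = reference agonist at full effect; tested in CHO reporter cells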
Target sequence (O43603 whole entry, looked up): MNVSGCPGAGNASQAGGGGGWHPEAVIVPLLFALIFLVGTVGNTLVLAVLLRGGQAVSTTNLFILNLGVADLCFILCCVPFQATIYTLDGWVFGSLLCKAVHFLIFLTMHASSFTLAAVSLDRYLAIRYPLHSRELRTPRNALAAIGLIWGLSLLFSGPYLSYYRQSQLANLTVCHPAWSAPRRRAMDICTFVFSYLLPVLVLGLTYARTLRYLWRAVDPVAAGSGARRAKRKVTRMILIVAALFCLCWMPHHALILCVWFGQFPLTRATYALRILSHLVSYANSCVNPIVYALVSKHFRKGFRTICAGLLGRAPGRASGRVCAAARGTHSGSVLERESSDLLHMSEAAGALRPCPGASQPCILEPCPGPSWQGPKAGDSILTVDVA
RGS16-Gao HTS = regulators of human RGS16-Galphao interaction | binding response (% of control), % at 10 µM | O15492+P09471 | bead-based flow cytometry RGS16-Galphao binding, fluorescence; actives lie on both sides | hit rate 0.38% among 220,000;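 active = below 25% or above 175%, edge rows of some plates excepted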;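 note: Galphao activated by GDP with aluminum fluoride before binding; 100% = wells without compound and 0% = beads without RGS; some results beyond the cut were filed as inactive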
Target sequence (O15492 whole entry, looked up): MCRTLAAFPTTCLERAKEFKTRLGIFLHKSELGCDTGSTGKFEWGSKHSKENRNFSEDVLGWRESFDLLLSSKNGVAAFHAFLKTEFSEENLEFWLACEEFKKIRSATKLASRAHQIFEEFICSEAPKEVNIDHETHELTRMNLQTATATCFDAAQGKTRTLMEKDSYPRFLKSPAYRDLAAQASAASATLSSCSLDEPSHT
Target sequence (P09471 whole entry, looked up): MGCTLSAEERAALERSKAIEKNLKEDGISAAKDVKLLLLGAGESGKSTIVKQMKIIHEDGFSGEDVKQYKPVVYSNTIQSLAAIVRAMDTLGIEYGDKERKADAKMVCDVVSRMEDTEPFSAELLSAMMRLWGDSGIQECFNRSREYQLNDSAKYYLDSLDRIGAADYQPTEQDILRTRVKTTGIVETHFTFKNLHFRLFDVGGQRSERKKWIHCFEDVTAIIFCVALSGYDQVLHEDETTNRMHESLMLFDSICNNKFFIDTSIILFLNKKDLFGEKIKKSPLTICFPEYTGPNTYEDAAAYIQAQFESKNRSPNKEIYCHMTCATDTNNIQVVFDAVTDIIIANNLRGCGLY
Insulin prom inh cell count = second read-out of Insulin prom inh, no call of its own (marks repeat the call); normalized cell count, %; measured here: cell count, toxicity; reference of the scale not given here;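 cells exposed to compound for 48 h; stained nuclei by imaging scaled within each plate; lower means fewer cells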
HSV augment primary fold = second read-out of HSV augment, no call of its own (marks repeat the call); fold increase; compound at 10 µM; measured here: primary screen fold increase 10 uM; tested in PC3 cells;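 GFP signal in the first replicate; 1 = infected wells without compound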
Starred values were filed as active, the others as inactive; i = inactive; / = no result given; & = joins results of further samples. Random draw from the library; overall some 1.2% were active at least once.

Value order: HSV augment, HSV augment primary fold, Insulin prom inh, Insulin prom inh cell count, PKD1 inh, GALR2 ag, RGS16-Gao HTS
COC(=O)c1ccc(N=NN2CCOCC2)cc1
 : i, 0.91, 5, 110, 1, -0.1, 101
CN(C)c1nc(OCCOC(=O)c2ccccc2)nc(N(C)C)n1
 : i, 1.2, -7, 60, 5, 1.7, 96
CC1CC(=O)Nc2ccccc2N1S(=O)(=O)c1ccc(F)cc1F (stereo not drawn)
 : i, 0.94, /, /, /, /, 95
CCOC(=O)N1CCN(C(=O)c2c(N)no[n+]2[O-])CC1
 : /, /, 23, 79, -2, /, 101
CC(Nc1ncnc2nc[nH]c12)c1ccccc1 (stereo not drawn)
 : i, 1, -114, 109, 5, -0.9, 102
O=C(c1ccc(S(=O)(=O)Cc2cc(F)ccc2F)c([N+](=O)[O-])c1)N1CCCCC1
 : i, 0.62, -11, 106, 1, -0.8, 110
COCCn1c(SCC(=O)Nc2cc(C)cc(C)c2)nnc1C(C)C
 : i, 0.94, /, /, 2, -1.0, 101
O=C(c1ccc2c(=O)n(Cc3ccc4c(c3)OCO4)c(=S)[nH]c2c1)N1CCCCC1
 : i, 0.72, /, /, -8, -2.1, 103
CCc1nc(SCC(=O)N2CC(=O)Nc3ccccc32)c2c(C)c(C)sc2n1
 : i, 0.96, /, /, 4, -2.1, 99
O=C(N/C=C\c1ccccc1)NCc1ccc(Cl)cc1
 : i, 1.2, 41, 131, -10, -2.3, 99
S=C1SCN(Cc2cccnc2)CN1Cc1cccnc1
 : i, 0.61, /, /, /, /, 99
CC(/C=N/NC(=O)c1cc(-c2cccnc2)nc2c1c(C)nn2-c1ccccc1)=C\c1ccccc1
 : i, 0.99, /, /, -5, -1.7, 110
O=C(CCC(=O)N(CC(=O)NC1CCCCC1)Cc1ccco1)Nc1nccs1
 : i, 0.91, /, /, 5, -0.2, 100
Cc1ccc(CS(=O)(=O)c2ccc(C(=O)N3CCCCC3)cc2[N+](=O)[O-])cc1
 : i, 0.74, 48, 92, 5, /, 100
O=C(CO/N=C/c1ccc(OC(F)F)cc1)NC1CCCCC1
 : i, 0.89, /, /, 2, /, 99
Cc1noc(NS(=O)(=O)c2ccc(NC(=O)CSc3nc4c(cc3C#N)CCC4)cc2)c1C
 : i, 0.93, /, /, -1, -3.5, 105
Fc1ccccc1NC(=S)N1CCN(Cc2ccccc2)CC1
 : i, 0.97, 15, 73, -7, -0.2, 108
O=C1CC(c2ccccc2)c2ccc(O)cc2O1 (stereo not drawn)
 : i, 0.94, 20, 111, 4, 1.2, 103
CCOC(=O)c1c(CNCCN(CC)CC)n(C)c2cc(Br)c(OC)cc12
 : i, 0.98, -4, 81, 8, 0.0, 110
Cc1cc(C)n(/C(=C\N(C)C)C(=O)c2ccc(Cl)cc2)n1
 : i, 0.99, /, /, -7, /, 103

Molecules above with a nitro group on carbon (2):
Value order: HSV augment, HSV augment primary fold, Insulin prom inh, Insulin prom inh cell count, PKD1 inh, GALR2 ag, RGS16-Gao HTS
O=C(c1ccc(S(=O)(=O)Cc2cc(F)ccc2F)c([N+](=O)[O-])c1)N1CCCCC1
 : i, 0.62, -11, 106, 1, -0.8, 110
Cc1ccc(CS(=O)(=O)c2ccc(C(=O)N3CCCCC3)cc2[N+](=O)[O-])cc1
 : i, 0.74, 48, 92, 5, /, 100

The list goes on:
Value order: HSV augment, HSV augment primary fold, Insulin prom inh, Insulin prom inh cell count, PKD1 inh, GALR2 ag, RGS16-Gao HTS
Cc1nn(-c2cc(N(S(C)(=O)=O)S(C)(=O)=O)c(Cl)cc2Cl)c(=O)n1C
 : i, 0.96, 58, 92, -11, -0.5, 29
Cc1ccccc1NC(=O)c1ccc(COc2ccc3c(C)cc(=O)oc3c2)cc1
 : i, 0.53, -30, 102, -2, 1.4, 102
CCCCN(C(=O)NC(=O)Nc1ccccc1OC)S(C)(=O)=O
 : i, 1, /, /, 1, -1.4, 103
Cc1ccc(S(=O)(=O)N2CCN(S(=O)(=O)N3CCCCC3)CC2)cc1
 : i, 0.84, 30, 131, -4, -1.9, 101
COc1ccc(CSc2nnc(SCc3ccc([N+](=O)[O-])cc3)s2)cc1
 : i, 0.82, 13, 133, 8, -2.6, 102
O=C(NC(=S)Nc1nc(-c2ccc(Br)cc2)cs1)c1cccnc1
 : i, 0.91, /, /, -4, -1.8, 101
CC/C(C)=C1\SC(N2CCOCC2)=NC1=O
 : i, 1.1, -3, 82, 3, -1.2, 99
Cc1ccc(NS(=O)(=O)c2ccc(Cl)s2)cc1S(=O)(=O)N(C)C
 : i, 0.97, -2, 68, -4, -1.2, 3
COc1ccccc1Nc1nc(N)nc(CN(C)C2CCCCC2)n1
 : i, 0.86, -195, 96, -1, -3.8, 107
COCCN1C(=O)C(=O)/C(=C(/O)c2ccc(S(=O)(=O)N3CCOCC3)cc2)C1c1cccc(O)c1 (stereo not drawn)
 : i, 0.97, /, /, /, /, 97
CCOC(=O)c1ccc(NC(=O)CN(c2ccc(C)cc2)S(=O)(=O)c2c(C)n[nH]c2C)cc1
 : /, /, /, /, -9, 0.7, 107
CCN1CCN(C(=O)CN2C(=O)c3cccc4cccc2c34)CC1
 : i, 0.83, 44, 142, 5, -0.7, 101
C/C(=N\NC(=O)Cc1c(C)[nH][nH]c1=O)c1ccc(Cl)c(Cl)c1
 : i, 0.96, /, /, /, /, 100
CC(=O)Nc1ccc(S(=O)(=O)Nc2nc3ccccc3nc2Nc2ccc(O)cc2)cc1
 : i, 0.89, /, /, /, /, 107
COc1ccc(NC(=S)Nc2cccc3cnccc23)cc1
 : i, 0.83, 0, 136, -2, 0.0, 95
CCNC(=O)COc1ccc(Br)cc1Cl
 : i, 0.79, 20, 175, -8, 0.5, 104
CCOc1ccc(S(=O)(=O)NCc2ccccn2)cc1
 : i, 0.94, 6, 157, 5, -0.8, 103
CC(=O)c1ccc(NC(=S)Nc2cccc(S(=O)(=O)Nc3c(C)n(C)n(-c4ccccc4)c3=O)c2)cc1
 : i, 1.1, /, /, 7, /, 85
COc1ccc(CN2C(=O)CSC2c2ccncc2)cc1 (stereo not drawn)
 : i, 0.94, /, /, /, /, 112
CSc1ccc(Cl)c(C(=O)NCc2ccco2)c1
 : i, 0.98, -26, 89, -1, -0.8, 60

Whole records, looked up by structure. Order of values: HSV augment	HSV augment primary fold	Insulin prom inh	Insulin prom inh cell count	PKD1 inh	GALR2 ag	RGS16-Gao HTS
Cc1ccccc1NC(=O)c1ccc(COc2ccc3c(C)cc(=O)oc3c2)cc1 is listed as i	0.53	-30	102	-2	1.4	102
CCN1CCN(C(=O)CN2C(=O)c3cccc4cccc2c34)CC1 is listed as i	0.83	44	142	5	-0.7	101
Cc1ccc(NS(=O)(=O)c2ccc(Cl)s2)cc1S(=O)(=O)N(C)C is listed as i	0.97	-2	68	-4	-1.2	3
COc1ccccc1Nc1nc(N)nc(CN(C)C2CCCCC2)n1 is listed as i	0.86	-195	96	-1	-3.8	107
CC(=O)c1ccc(NC(=S)Nc2cccc(S(=O)(=O)Nc3c(C)n(C)n(-c4ccccc4)c3=O)c2)cc1 is listed as i	1.1	/	/	7	/	85

Part of the list above, showing only RGS16-Gao HTS and Insulin prom inh.
structure	RGS16-Gao HTS	Insulin prom inh
Cc1ccc(NS(=O)(=O)c2ccc(Cl)s2)cc1S(=O)(=O)N(C)C	3	-2
COc1ccccc1Nc1nc(N)nc(CN(C)C2CCCCC2)n1	107	-195
COCCN1C(=O)C(=O)/C(=C(/O)c2ccc(S(=O)(=O)N3CCOCC3)cc2)C1c1cccc(O)c1 (stereo not drawn)	97	/
CCOC(=O)c1ccc(NC(=O)CN(c2ccc(C)cc2)S(=O)(=O)c2c(C)n[nH]c2C)cc1	107	/

Structures shown so far containing a thiophene ring, fused or not (2):
Value order: HSV augment, HSV augment primary fold, Insulin prom inh, Insulin prom inh cell count, PKD1 inh, GALR2 ag, RGS16-Gao HTS
CCc1nc(SCC(=O)N2CC(=O)Nc3ccccc32)c2c(C)c(C)sc2n1
 : i, 0.96, /, /, 4, -2.1, 99
Cc1ccc(NS(=O)(=O)c2ccc(Cl)s2)cc1S(=O)(=O)N(C)C
 : i, 0.97, -2, 68, -4, -1.2, 3

The listing continues.
Value order: HSV augment, HSV augment primary fold, Insulin prom inh, Insulin prom inh cell count, PKD1 inh, GALR2 ag, RGS16-Gao HTS
CC(=O)Nc1ccc2[nH]c(C)c(CC=C(Cl)Cl)c(=O)c2c1
 : i, 0.9, /, /, 2, 14*, 84
Cc1ccccc1-c1noc(CCC(=O)NCc2ccco2)n1
 : i, 1.2, /, /, /, /, 92
CC(=O)N1CCN=C1SCc1ccccc1Cl
 : i, 0.96, /, /, -7, -1.1, 93
CC1(C)Cc2c(c(=S)nc(-c3ccccc3)n2CCOCCO)CO1
 : i, 0.94, -31, 114, -10, -1.1, 107
Cc1ccccc1Cn1cc(NC(=O)c2nn(C)cc2Cl)cn1
 : i, 0.97, /, /, -9, -0.6, 42
Cc1cccc(N2C(=O)C(Oc3ccc(Cl)cc3Cl)C2C(=O)O)c1C (stereo not drawn)
 : i, 0.89, -40, 116, -8, 0.2, 102
CCC(=O)n1nc(-c2cccnc2)nc1NCc1ccc(OC)cc1
 : i, 0.91, 33, 96, -2, -1.7, 102
Clc1ccc(C=NC23CN4CN(CN(C4)C2)C3)cc1
 : i, 0.82, /, /, -1, -0.8, 105
Cc1cc(Nc2ccc3c(c2)OCCO3)c2cccc(C)c2n1
 : i, 0.8, 0, 109, 1, -0.8, 102
Cc1ccc(NC(=O)Cc2noc3ccccc23)nc1
 : i, 1, 8, 81, -7, -1.2, 34
COc1ccc([C@@H]2C[C@@H](c3ccccc3)Oc3cc(OC)c(OC)c(OC)c32)cc1
 : i, 0.89, /, /, /, /, 100
COc1ccc(C(CCN2CCCC(C)C2)c2c(OC)cc(OC)c3c2OC(=O)CC3c2cc(OC)c(OC)c(OC)c2)cc1 (stereo not drawn)
 : i, 0.86, /, /, /, /, 109
O=C(NC1CC1)C1CCN(c2ccc(S(=O)(=O)N3CCOCC3)cc2Cl)CC1
 : i, 1.1, -33, 91, -12, -1.6, 102
Cc1ccc(-c2c(C#N)c(N)nc3c2CCCCCC3)o1
 : i, 1, 12, 124, -1, 0.7, 85
O=C(C1CCN(Cc2ccc(F)cc2)CC1)N(CCO)Cc1ccccc1
 : i, 0.94, -8, 81, -2, 1.1, 106
CCOCCCNC(=S)N1C2CCC1CC(NC(=O)NC1CCCCC1)C2 (stereo not drawn)
 : i, 1, -46, 136, 0, -1.1, 31
COc1ccc(NC(=O)CNCCC2=CCCCC2)cc1
 : i, 0.79, 12, 101, 5, -2.3, 100
Cc1ccc(S(=O)(=O)N2CCN(C(=O)c3cc(=O)[nH]c4ccccc34)CC2)c(C)c1
 : i, 0.99, 13, 68, -6, -1.8, 105
Clc1ccc(CSc2nnc(/C=C/c3ccccc3)o2)cc1
 : i, 0.93, 0, 153, 1, -2.1, 99
COc1ccc(OCCn2c(NC(=O)c3ccco3)nc3ccccc32)cc1
 : i, 0.79, -15, 29, -9, -0.7, 99

(list continues)
Value order: HSV augment, HSV augment primary fold, Insulin prom inh, Insulin prom inh cell count, PKD1 inh, GALR2 ag, RGS16-Gao HTS
O=C(c1noc2c1CCCC2)N1CCN(C(c2ccccc2)c2ccccc2)CC1
 : i, 0.94, /, /, -4, -1.2, 103
CCOc1cc(NC(=S)NCCCN2CCOCC2)c(OCC)cc1NC(=O)c1ccccc1
 : i, 0.89, /, /, 7, /, 103
CCN(Cc1ccccc1)C(=O)c1nn(-c2ccc(OC)cc2)c(=O)c2c1c1ccccc1n2C
 : i, 0.66, -20, 140, -2, /, 103
CN(C)c1cc(Nc2cccc(O)c2)c([N+](=O)[O-])c2nonc12
 : i, 0.91, /, /, /, /, 105
N#Cc1nc(Cc2cccc3ccccc23)oc1NCCN1CCCCC1
 : i, 0.9, /, /, -1, 0.1, 101
Cc1ccccc1C(=O)Nc1nnc(-c2ccc(C(C)(C)C)cc2)s1
 : i, 0.9, 3, 135, 16, -1.3, 111
Cc1nc2ccccc2n1/N=C/c1ccc([N+](=O)[O-])s1
 : i, 0.66, -179, 128, 6, 2.3, 115
CCOC(=O)N1CCC(=C2c3ccc(Cl)cc3CCc3cccnc32)CC1
 : i, 0.74, 38, 145, -5, -0.8, 97&102
CC(NC(=O)c1ccccc1N)c1ccccc1 (stereo not drawn)
 : i, 1.1, 37, 133, 9, /, 96
COc1cccc(-n2c([S-])c(C(=O)Nc3ccc(S(=O)(=O)N4CCOCC4)cc3)[n+]3cc(C(N)=O)ccc23)c1
 : i, 1.1, /, /, /, /, 108
CCOC(=O)c1nnn(-c2nonc2-n2cccc2)c1C
 : i, 0.95, 18, 92, -6, -0.3, 99
CC(=O)Oc1ccc(N2C(=O)C3C4C=CC(C5CC45)C3C2=O)cc1[N+](=O)[O-] (stereo not drawn)
 : i, 1, 6, 85, 1, -1.0, 104

Screening results as filed in PubChem.
